Screening data as filed in PubChem BioAssay.
A1 inh – caspase 3/7 activation in MEF A1-2A-BIM cells, primary screen, A1 inhibitor project, cell-based, luminescence, HTS | Caspase-Glo 3/7 luminescence, 3 h; percent of clofoctol response, vehicle zero | caspase activation, % (concentration not given with the values) | actives 0.066% (n = 330,000) | AID 2462, 2010;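 active = over half of replicate activation scores above 10%, or exactly half above 10 with the replicate mean above 10; inconclusive = replicate mean below 10 yet half the replicates above 10; inactive = over half of replicates below 10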;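 also: wells of about 30 µL received 50 nL stock; many hits fall short of the cut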
RanGTP-Imp inh – inhibitors of RanGTP-importin-beta interaction, primary screen, biochemical, FRET, CFP-Ran, YFP-importin-beta, homogeneous; Ran GTPase (GTP-bound) - importin-beta complex; cell-free CFP-Ran/YFP-importin-beta FRET ratio; inhibition, % (concentration not given with the values); actives 1.1% (n = 300,000);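 active = most replicates above 15%; inconclusive = exactly half above 15%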;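 also: 0% = DMSO wells and 100% = Ran loaded with GDP instead of GTP; wells of about 40 µL received 100 nL stock; the first replicate is given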
Ecoli rRNA inh – reduced GFP signal of wild-type E. coli, primary screen, bacterial rRNA inhibitor project, GFP/RFP fluorescence, OD600, single point. E. coli WT GFP vs humanized-ribosome RFP mutants, 24 h; hits give low values; DMSO median 0, no signal -100. GFP signal change (wild-type ribosome), % (concentration not given with the values). actives 1.6% (n = 350,000). AID 720706, 2013;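 active = significant combined selectivity score with lowered wild-type GFP, culture density cut under 30%, mutant RFP and density less affected; inactive = any of these conditions unmet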; also: one replicate is shown; some compounds called inactive have numbers as strong as hits
Vif TR-FRET – inhibitors of Vif binding to APOBEC3G peptide, primary screen, biochemical, TR-FRET, GST-Vif 1-94, biotin-A3G peptide, dose response retest (AID 1117319); Virion infectivity factor (Human immunodeficiency virus type 1 group M subtype B (isolate …; TR-FRET GST-Vif / biotin-A3G peptide binding; higher % means a stronger effect; test concentration not given here; strong numbers were not always called active; inhibition, %; hits with a dose series show IC50 in µM; actives 0.57% (n = 260,000);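 active = above the screen mean plus three standard deviations and confirmed in dose response; inconclusive = results disagree or hit not tested in dose response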;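 also: Vif residues 1-94 fused to GST binding biotinylated APOBEC3G peptide 110-148; 0% = full assay without inhibitor and 100% = GST in place of GST-Vif; retest series ran down from 100 µM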
T cruzi repl – inhibitors of intracellular T. cruzi growth, primary screen, luminescence, NIH3T3 host cells. T. cruzi beta-gal in NIH3T3, 90 h. inhibition, % (test concentration not listed). AID 1885, 2009. actives 1.4% (n = 300,000);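 active = mean inhibition across valid replicates above about 55%, limit read from the data; inconclusive = mean below that limit but half or more replicates reach it; inactive = mean below it, under half of replicates reach it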;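 also: signal also drops with host cell toxicity which is not excluded here; 0% = plate median of DMSO wells and 100% = zero luminescence signal; higher percent means less beta-gal luminescence so fewer parasites; stock transfer was 50 nL into about 50 µL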
Beta apoptosis – inhibitors of cytokine-induced beta cell apoptosis, primary screen, luminescence; protection from apoptosis, % (test concentration not listed); actives 0.8% (n = 300,000); INS-1E cytokine-induced death, ATP luminescence, 48 h; percent of positive-control rescue, neutral wells zero;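 active = all replicates at 75% or more, or half of them and the mean; inconclusive = half reach 75% but not the mean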;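 also: 0% = cytokine-treated negative control wells and 100% = positive control rescue; higher means more ATP so stronger rescue from cytokine killing; wells of about 40 µL received 100 nL stock; the first replicate is given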
MLL AF4-AF9 inh – inhibitors of AF4 peptide binding to AF9, primary screen, biochemical, AlphaScreen, biotin-AF4 peptide, FLAG-AF9, single point. Protein AF-9 (Homo sapiens), P42568. inhibition, % at 10 µM. actives 0.47% (n = 350,000). AID 651704, 2012;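 active = every replicate reaching a set inhibition limit, whatever the replicate mean, cut at about 25% in these data; inconclusive = mean inhibition reaches that limit but some replicates miss it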;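 also: 0% = plate neutral control median and 100% = total signal loss; the record names both 10 and 1 µM as test concentration; the first replicate is given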
Target sequence (P42568 whole entry, looked up): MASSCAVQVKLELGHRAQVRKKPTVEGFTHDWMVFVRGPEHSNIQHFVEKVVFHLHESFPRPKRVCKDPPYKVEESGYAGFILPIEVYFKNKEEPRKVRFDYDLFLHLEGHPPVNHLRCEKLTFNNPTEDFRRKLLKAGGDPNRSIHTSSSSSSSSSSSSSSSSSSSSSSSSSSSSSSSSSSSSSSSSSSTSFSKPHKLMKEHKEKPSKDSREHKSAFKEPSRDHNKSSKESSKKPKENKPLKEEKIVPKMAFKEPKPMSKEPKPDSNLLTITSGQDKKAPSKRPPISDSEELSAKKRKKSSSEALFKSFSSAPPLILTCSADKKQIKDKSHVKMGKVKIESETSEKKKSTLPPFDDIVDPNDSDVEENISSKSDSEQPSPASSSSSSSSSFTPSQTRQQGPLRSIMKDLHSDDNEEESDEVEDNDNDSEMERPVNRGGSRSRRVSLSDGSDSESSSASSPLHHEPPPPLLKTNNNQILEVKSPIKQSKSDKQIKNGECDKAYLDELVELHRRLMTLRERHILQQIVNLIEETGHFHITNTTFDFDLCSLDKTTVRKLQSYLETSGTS
Calb FLC – C. albicans growth inhibition with fluconazole, primary screen, CaCi-2 strain, Alamar Blue fluorescence | actives 0.57% (n = 300,000) | AID 1979, 2009 | growth inhibition, % (no concentration beside the values) | C. albicans CaCi-2 (fluconazole-resistant clinical isolate) + fluconazole, 48 h;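 active = most replicates above 75%; inconclusive = exactly half above 75%; inactive = most below 75%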;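 also: all wells also contain fluconazole at 8 µg/ml as a sub-toxic cotreatment; 0% = median of DMSO wells and 100% = median of geldanamycin control wells; wells of about 8 µL received 7.5 nL stock; the first replicate is given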
Ecoli rRNA inh OD600 – second read-out of Ecoli rRNA inh, no call of its own (marks repeat the call); OD600 change, %; measured here: OD600 growth;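 optical density of the mix in the first replicate; 0 = DMSO median and -100 = no signal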
Ecoli rRNA inh RFP – second read-out of Ecoli rRNA inh, no call of its own (marks repeat the call); RFP signal change, %; measured here: RFP humanized mutant strains;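 first replicate; 0 = DMSO median and -100 = no signal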
Numbers without * were called inactive; ? = inconclusive; / = not tested or not shown; & = joins results of further samples. A portion of the library. The share of hits here may be higher or lower than overall.

SMILES	A1 inh	RanGTP-Imp inh	Ecoli rRNA inh	Ecoli rRNA inh OD600	Ecoli rRNA inh RFP	Vif TR-FRET	T cruzi repl	Beta apoptosis	MLL AF4-AF9 inh	Calb FLC
CCOC(=O)C(C(=O)Nc1nccs1)C1CCCCC1 (stereo unspecified)	0.3	-1.0	/	/	/	-5%	-10	-5	/	1
Cc1cccc(N=C2NC(=O)CS2)c1	1.0	?	/	/	/	3%	-1	-10	/	-11
CCOC(=O)c1c(CN(CC)CC)oc2cc(Br)c(O)cc12	-0.3	4.7	-5	-5	-2.4	7%	4	15	-4.7	6
O=C(CNC(=O)c1ccccc1)NCCc1nc2ccccc2[nH]1	0.5	-0.4	/	/	/	-1%	-15	-4	/	5
CC(=O)c1cc(N2CCC(C(=O)O)CC2)ccc1[N+](=O)[O-]	-0.1	?	3	3	-1.7	0%	-12	1	-0.7	?
CCn1nc([N+](=O)[O-])c2c(-c3nc4ccccc4o3)c(N)n(CCCOC)c2c1=O	-0.1	?	7	10	-2.3	-2%	35	5	-0.3	1
O=c1c2cc(NC(=S)NCc3cccnc3)ccc2nc2n1CCCCC2	0.3	-2.5	-21	-23	-1.3	-2%	2	-4	-1.1	19
Cc1cc(NC(=O)CN2CCOCC2)n(-c2nc3ccccc3s2)n1	-0.6	-2.5	/	/	/	24%	-7	/	/	-2
CC1CCN(S(=O)(=O)c2ccc3ncn(CC(=O)N(C)Cc4ccccc4)c(=O)c3c2)CC1	1.0	1.3	/	/	/	-10%	4	-5	/	3
COc1cc2cc(CCOC(=O)CCCC(=O)O)oc(=O)c2cc1OC	0.5	/	3	1	4.2	/	/	-7	-0.3	/
CC(=O)c1cccc(NC(=O)CN2CCc3cc4c(cc3C2)OCCCO4)c1	1.0	6.9	/	/	/	/	5	2	0.9	-9
COc1cccc(C(=O)N2N=C(c3cccc(OC)c3)CC2(O)C(F)(F)F)c1 (stereo unspecified)	0.1	-2.0	/	/	/	-4%	-1	1	/	9
CCOC(=O)N1CCN(C(=O)CCNS(=O)(=O)c2cc(Br)cnc2N)CC1	1.2	-5.6	/	/	/	-4%	-2	-7	/	?
O=C(Nc1ccc(S(=O)(=O)N2CCCCC2)cc1)c1ccccc1Cl	1.0	?	/	/	/	0%	-7	3	/	-6
COc1ccc(-c2nnc(SCC(=O)NCCc3ccccc3)o2)cc1	0.5	2.9	/	/	/	-2%	7	-2	/	-5
CC(=O)c1ccc(NC(=O)C(C)NCc2ccccc2Cl)cc1 (stereo unspecified)	0.6	-2.3	-8	-2	6.3	-5%	1	-1	1.6	-2
O=C(O)c1ccc(-c2noc(-c3ccccc3F)n2)cc1	-12	-0.5	-14	-21	-4.7	/	-19	1	-3.6	0
CC1(C)CCCN(Cc2c(O)ccc3c(=O)c(-c4nc5ccccc5s4)c(N)oc23)C1	-0.6	-3.3	-30	-30	-13	-35%	54	2	3.0	-5
O=C(O)c1ccccc1C(c1ccc(O)cc1)c1ccc(O)cc1	0.8	2.7	-7	-4	-11	0%	-2	-5	-1.4	1
Cc1cc(C)n(-c2nnc(Cl)c3ccccc23)n1	0.2	0.3	20	8	-1.8	13%	-14	-3	-0.4	?
CCCC(=O)N(C)c1nnc(-c2ccc(OC)cc2)s1	-1.2	1.7	/	/	/	7%	8	-3	/	-17
CCC(CO)Oc1cc(NC(=O)c2ccccc2C)c2ncn(C(C)C)c2c1 (stereo unspecified)	0.6	/	-16	-7	-2.5	/	/	2	0.1	/
Cc1[nH]c2ccccc2c1/C=N/NC(=O)Nc1ccccc1	1.4	3.5	-20*	16*	6.1*	-9%	1	1	0.1	-6
CC(OC(=O)C1CCN(S(=O)(=O)c2ccccc2)CC1)C(=O)Nc1ncc(Cl)cc1Cl (stereo unspecified)	0.2	-5.4	/	/	/	0%	-5	-8	/	-11
CCCCOC(=O)c1[nH]c2c(c1C)C(=O)CC(c1cc(OC)c(OC)c(OC)c1)C2 (stereo unspecified)	-0.5	9.0	-3	-2	1.2	-5%&-1%	31	75*	-2.6	7
Continuation:
SMILES	A1 inh	RanGTP-Imp inh	Ecoli rRNA inh	Ecoli rRNA inh OD600	Ecoli rRNA inh RFP	Vif TR-FRET	T cruzi repl	Beta apoptosis	MLL AF4-AF9 inh	Calb FLC
COc1ccc(N2CCN(S(=O)(=O)c3ccc(-n4cnnn4)c(C)c3)CC2)cc1	-1.1	-1.0	11	9	0.6	10%	12	-1	0.2	-1
CCOC(=O)c1oc2cc(O)cc(C)c2c(=O)c1-c1cscn1	0.2	0.6	/	/	/	4%	-5	-10	3.9	-4
CCOC(=O)Cc1csc(NC(=O)CCNS(=O)(=O)c2ccc3c(c2)CCC(=O)N3)n1	0.0	-3.1	/	/	/	-1%	3	-5	/	1
N#CNC1=NCN(Cc2ccccc2)CN1	-0.9	3.5	/	/	/	-8%	-10	-1	/	-4
COc1ccccc1N1CCN(Cc2c[nH]c3ccccc23)CC1	0.9	2.6	-7	-7	3.5	?	58*	/	7.1	-6
O=C(CSc1nc(-c2cccs2)cc(C(F)(F)F)n1)NCc1ccccc1	0.2	5.0	/	/	/	-8%	40	0	/	-2
Cc1ccc([N+](=O)[O-])cc1S(=O)(=O)NCCc1c(C)[nH]c2ccccc12	-0.4	5.3	/	/	/	?	6	-7	/	10
Cc1ccc(/C=N/N=C/c2ccc(C)s2)s1	-7.3	4.4	/	/	/	2%	0	0	/	-7
CC1CN(C(=O)CCC(=O)NCc2ccccc2Cl)c2ccccc2S1 (stereo unspecified)	0.4	2.1	-15	-21	-5.5	/	3	0	-5.7	-3
COc1ccc2c(c1OC)C(=O)OC2Nc1nc(-c2cc3cc([N+](=O)[O-])ccc3oc2=O)cs1 (stereo unspecified)	0.3	1.9	10	9	4.2	84%	3	0	12	-6
CCCCCc1c(C)nc(SCC(=O)O)[nH]c1=O	0.5	2.6	/	/	/	-4%	-8	0	/	3
COc1ccc2cc(CCNC(=O)CC(C)(C)C)c(=O)[nH]c2c1	-0.3	2.1	/	/	/	28%	-12	-7	/	16
CC1CCN(CCCNC(=O)CN2C(=O)CSc3ccc(S(=O)(=O)N4CCCCC4)cc32)CC1	?	0.0	9	8	0.3	/	5	1	3.4	4
COc1ccc(C2(C)NC(=O)N(CC(=O)c3cc(C)n(C4CC4)c3C)C2=O)cc1OC (stereo unspecified)	0.0	/	-3	3	0.4	1%	/	-4	-3.6	/
CC(=O)Nc1sc(-c2ccc(Cl)cc2)nc1-c1ccccc1	1.0	3.2	12	4	4.3	/	-1	-4	-16	5
O=C(NC1CCCCC1)C(c1ccccc1F)N(C(=O)c1csnn1)C1CCCC1 (stereo unspecified)	0.0	-1.6	-3	-14	5.1	/	23	0	5.5	-5
CCOC(=O)c1cc(NC(=O)Nc2nccs2)c(C)nc1C	1.2	4.0	-6	-11	-2.2	-3%	-1	-1	1.0	-15
O=C(Nc1ccc(F)cc1F)c1cc(Cl)sc1Cl	-2.9	0.3	8	9	-1.6	-3%	-4	-4	-2.0	1
CCCC(=O)NC(=S)Nc1ccccc1F	0.4	7.8	/	/	/	2%	-4	-6	/	-8
CCN(CC)C(=O)CC(c1ccc2c(c1)OCO2)c1c(OC)cc(OC)c2c(-c3ccccc3)cc(=O)oc12 (stereo unspecified)	0.0	?	1	-10	-1.7	/	12	5	3.1	14
Cc1ccc(S(=O)(=O)NNC(=O)Nc2cccc3ccccc23)cc1	0.7	-7.9	8	2	9.9	?	4	-8	-7.1	-9
COc1ccc(-n2c(=O)n(Cc3ccccc3)c(=O)c3[nH]cnc32)cc1	-0.8	1.8	2	-9	4.2	/	8	-5	-4.8	-7
COc1ccc(COCC(O)CN2CCC(CN3C(=O)c4cccc5cccc(c45)C3=O)CC2)cc1OC (stereo unspecified)	0.3	4.6	/	/	/	3%	40	27	/	7
Clc1ccccc1Cn1nnc(-c2ccccc2)n1	-0.1	-1.0	-6	0	1.2	-4%	-3	-4	-0.9	0
COc1ccc(C(C(=O)NC2CCCCC2)N(CC2CCCO2)C(=O)C2COc3ccccc3O2)cc1OC (stereo unspecified)	-0.8	-1.2	/	/	/	31%	3	/	/	8

Brought forward from above: two compounds; new compounds follow.
SMILES	A1 inh	RanGTP-Imp inh	Ecoli rRNA inh	Ecoli rRNA inh OD600	Ecoli rRNA inh RFP	Vif TR-FRET	T cruzi repl	Beta apoptosis	MLL AF4-AF9 inh	Calb FLC
Clc1ccccc1Cn1nnc(-c2ccccc2)n1	-0.1	-1.0	-6	0	1.2	-4%	-3	-4	-0.9	0
COc1ccc(C(C(=O)NC2CCCCC2)N(CC2CCCO2)C(=O)C2COc3ccccc3O2)cc1OC (stereo unspecified)	-0.8	-1.2	/	/	/	31%	3	/	/	8
O=C(CN1CCN(S(=O)(=O)c2ccc(Br)cc2)CC1)N/N=C/c1ccc(Cl)c([N+](=O)[O-])c1	0.5	-2.0	5	6	16	/	-5	-1	9.8	-3
O=C(CSc1ccccc1F)NNC(=O)c1cncc(Br)c1	1.2	/	6	0	-1.6	/	/	-3	-0.7	/
COC(=O)c1ccc(Cn2c(O)c(N=O)c3ccccc32)o1	0.0	4.1	-1	0	-6.1	17%	16	-3	/	2
O=C(NCCc1ccccc1)c1ccccc1SCC(=O)N1CCCC1	-0.1	3.9	5	5	2.5	-7%	1	-1	?	-7
CCn1c(SCC(=O)Nc2cccc(OC)c2)nc2ccccc2c1=O	-0.4	-1.7	-16	-24	-0.3	/	14	0	-1.8	-5
Cc1nn(CC(=O)N(C)C2CCS(=O)(=O)C2)c(C)c1S(=O)(=O)N(C)C (stereo unspecified)	-0.5	/	/	/	/	-3%	/	-1	1.7	/
O=C(NCCCn1ccnc1)C(=O)NCC(c1ccco1)N1CCN(c2ccccc2)CC1 (stereo unspecified)	-1.1	-1.0	0	2	-3.6	/	1	-10	2.1	-1
COc1ccc(CC(=O)NC(c2ccccc2)c2ccccc2)cc1S(=O)(=O)N1CCOCC1	0.7	-0.9	/	/	/	1%	-18	/	/	-6
O=C(CN1CCCN(S(=O)(=O)c2ccc(F)cc2)CC1)Nc1c(Cl)cccc1Cl	0.1	1.9	/	/	/	/	-1	4	0.8	-5
Cc1nc2ccccn2c1/C(O)=C1\C(=O)C(=O)N(CCN2CCOCC2)C1c1ccncc1 (stereo unspecified)	-0.1	3.3	/	/	/	6%	/	-2	/	1
COc1ccc(Nc2cc(Cl)ccc2C(=O)O)cn1	0.5	?	-12	-19	19	27%	2	-3	1.1	2
